Assay outcomes (PubChem)
UCH37 DUB inh – inhibitors of human deubiquitinating enzyme UCH37; Q9Y5K5; purified proteasome/UCH37, Ub-AMC cleavage fluorescence; inhibition, % (concentration not given with the values); 330,000 compounds, 0.33% hits; AID 588478;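 active means mean of two replicates above 20%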;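 further: 0% = compound-free wells with enzyme and 100% = wells lacking proteasome; stock transfer was 100 nL into about 20 µL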
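assay system = human UCH37 enzyme supplied as purified proteasome complex | amount = proteasome at 0.15 nM in the dispensed enzyme solution | schedule = 30 min compound-proteasome preincubation then 25 min substrate reaction, room temperature | measured by = fluorescence, ex 355 nm, em 460 nm | benchmarks = no-proteasome wells (full inhibition) and compound-free wells (no inhibition)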
Ecoli growth – blocks Escherichia coli growth; OD600, 23 h; hits give low values; OD600 absorbance (no concentration beside the values); 330,000 compounds, 0.21% hits; AID 1053175;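 active means OD600 absorbance below the run mean of sample wells minus 3.6 SD, in any replicate, cut at about 0.56 in these data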;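 further: stock transfer was 300 nL into about 60 µL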
Beta2AR agonist – activates human beta-2 adrenergic receptor causing internalization; P07550; Am2.2-beta2AR cells, FAP receptor internalization, flow cytometry; reference of the scale not given here; response, % (concentration not given with the values); 340,000 compounds, 0.43% hits; AID 504454;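 active means response above a set limit, near 3 SD of response in nonfluorescent compounds, cut at about 42% in these data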;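 further: stock transfer was 100 nL into about 11 µL; a reference agonist was the positive control; negative values mostly stem from fluorescent compounds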
LANA-H2B inh – blocks KSHV LANA binding to histone H2A/H2B; cell-free LANA-H2A/H2B peptide, fluorescence polarization; inhibition, % (test concentration not listed); 320,000 compounds, 0.6% hits; AID 2629; in the data active means inhibition mostly above about 10%, no sharp cut-off; inactive means mostly below about 6.7%;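 further: stock transfer was 7.5 nL into about 10 µL; 0% = median of vehicle wells and 100% = median of positive control wells; one replicate is shown; the record names a cut of 25% in any replicate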
Target sequence (Q9QR71 whole entry, looked up): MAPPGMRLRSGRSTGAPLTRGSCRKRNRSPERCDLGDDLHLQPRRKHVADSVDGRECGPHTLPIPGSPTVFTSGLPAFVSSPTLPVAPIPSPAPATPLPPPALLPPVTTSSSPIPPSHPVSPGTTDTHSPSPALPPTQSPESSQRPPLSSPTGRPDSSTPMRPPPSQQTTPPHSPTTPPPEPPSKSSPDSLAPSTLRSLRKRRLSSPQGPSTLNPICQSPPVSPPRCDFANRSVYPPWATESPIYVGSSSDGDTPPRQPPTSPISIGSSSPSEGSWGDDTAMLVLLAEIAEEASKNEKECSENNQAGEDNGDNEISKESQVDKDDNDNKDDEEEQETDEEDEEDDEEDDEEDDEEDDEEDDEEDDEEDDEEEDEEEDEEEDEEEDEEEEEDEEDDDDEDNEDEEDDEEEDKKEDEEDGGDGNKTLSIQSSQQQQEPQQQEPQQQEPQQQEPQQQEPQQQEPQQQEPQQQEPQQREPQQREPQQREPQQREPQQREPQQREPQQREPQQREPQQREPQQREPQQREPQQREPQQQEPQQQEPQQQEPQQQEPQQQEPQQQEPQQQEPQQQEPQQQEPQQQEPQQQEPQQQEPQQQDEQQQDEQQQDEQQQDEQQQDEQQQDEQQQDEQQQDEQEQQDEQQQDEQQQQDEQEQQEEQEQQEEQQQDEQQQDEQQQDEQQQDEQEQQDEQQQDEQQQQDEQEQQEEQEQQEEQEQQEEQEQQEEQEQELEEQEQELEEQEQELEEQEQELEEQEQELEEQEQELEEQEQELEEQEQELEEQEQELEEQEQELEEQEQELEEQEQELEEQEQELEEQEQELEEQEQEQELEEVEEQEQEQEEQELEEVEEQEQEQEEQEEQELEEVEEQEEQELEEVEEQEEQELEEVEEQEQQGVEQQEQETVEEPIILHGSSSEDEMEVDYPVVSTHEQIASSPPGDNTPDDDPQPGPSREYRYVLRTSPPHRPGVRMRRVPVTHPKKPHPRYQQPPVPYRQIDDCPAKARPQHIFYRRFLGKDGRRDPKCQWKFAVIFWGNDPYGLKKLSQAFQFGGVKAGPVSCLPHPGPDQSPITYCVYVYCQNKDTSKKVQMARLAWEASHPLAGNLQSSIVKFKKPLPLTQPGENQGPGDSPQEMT
Vif A3G – HIV-1 Vif–A3G interaction blockers – biochemical, TR-FRET, GST-Vif 1-94, biotin-A3G peptide, dose response retest, primary screen (AID 1117319); TR-FRET GST-Vif / biotin-A3G peptide binding; higher % means a stronger effect; test concentration not given here; strong numbers were not always called active; inhibition, %; hits with a dose series show IC50 in µM; 260,000 compounds, 0.57% hits;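 active means above the screen mean plus three standard deviations and confirmed in dose response; inconclusive means results disagree or hit not tested in dose response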;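 further: Vif residues 1-94 fused to GST binding biotinylated APOBEC3G peptide 110-148; 0% = full assay without inhibitor and 100% = GST in place of GST-Vif; retest series ran down from 100 µM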
Bfl-1 A1 inh – inhibitors of the anti-apoptotic protein A1, read as caspase activation; caspase activation, % (no concentration beside the values); AID 2462; 330,000 compounds, 0.066% hits; MEF A1-2A-BIM cells, Caspase-Glo 3/7 luminescence, 3 h; percent of clofoctol response, vehicle zero;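 active means over half of replicate activation scores above 10%, or exactly half above 10 with the replicate mean above 10; inconclusive means replicate mean below 10 yet half the replicates above 10; inactive means over half of replicates below 10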;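 further: wells of about 30 µL received 50 nL stock; many hits fall short of the cut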
HNF4A DNA FP – change in binding of human HNF4 alpha to DNA; HNF4a-FITC DNA binding, fluorescence polarization, 1 h; P41235; 360,000 compounds, 0.3% hits; activity change, % at 10 µM; in the data active means activity change above about 30%, passing the limit was not always enough;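 further: controls were the assay level and a saturating level of protein; the project sought stronger binding though the title names inhibitors; some compounds called inactive have numbers as strong as hits; positive values seem to mean higher polarization but the record does not say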
Active calls of the source: *; i = inactive; ? = inconclusive; · = no result given; & = joins results of further samples. Random draw from the library; 2.1% or so of the library scored in one or more.

compound	Bfl-1 A1 inh	Ecoli growth	Vif A3G	UCH37 DUB inh	LANA-H2B inh	HNF4A DNA FP	Beta2AR agonist
N#CC1=C(N)Oc2cc(N)ccc2C1c1ccc(Cl)cc1 (stereo not given)	0.6	0.68	·	3.1	0.8	1.0	-3
OCCN(Cc1ccccc1)Cc1ccc(Cl)cc1	0.5	0.68	-4%	6.3	11	-1.3	0
CCN1CCN(c2cc(C)c3cc(NC(=O)c4cncc(Br)c4)ccc3n2)CC1	0.0	·	1%	·	1.8	5.3	3
COc1cc(/C=N/NC(=O)c2cccc([N+](=O)[O-])c2)ccc1OC(=O)c1ccco1	0.4	·	1%	·	14	4.1	1
OC(Cc1cccnc1)(c1ccccc1)c1ccccc1	·	0.71	-11%	0.0	·	-0.7	2
COC(=O)c1ccc(CN2CCN(Cc3ccccc3)C(CCO)C2)cc1 (stereo not given)	-0.7	0.72	-7%	2.6	0.1	-1.0	-15
Cc1cc([N+](=O)[O-])nn1Cc1c(F)c(F)c(F)c(F)c1F	-0.1	0.71	-1%	3.4	1.0	2.8	8
CCCCC(=O)NC(c1ccco1)c1c(O)ccc2ccccc12 (stereo not given)	0.6	0.67	?	-3.0	5.6	-0.2	-8
CCC(C(=O)Nc1cccc(C(F)(F)F)c1)c1ccccc1 (stereo not given)	0.0	0.67	-3%	-0.7	0.0	-0.5	3
CCOC(=O)N1CCN(C(=O)c2ccc3c(c2)N=C(C)c2cc(Cl)ccc2S3)CC1	1.9	0.68	·	2.1	-3.7	-0.2	-6
CC(=O)N1CCN(c2ccc(S(=O)(=O)N3CCOCC3)cc2[N+](=O)[O-])CC1	0.6	0.64	4%	1.9	6.4	-0.9	-3
Cc1ccc(S(=O)(=O)C2(C(=O)Nc3ccc(F)cc3)CC2)cc1	0.6	0.72	13%	0.8	·	1.8	0
Cc1ccc2cc3cc(C(=O)NCCC(C)C)oc3nc2c1	0.4	0.73	0%	-207	-4.3	5.1	-1
Cc1cccc(N2CC(C(=O)Nc3ccc(N4CCOCC4)cc3)CC2=O)c1C (stereo not given)	-0.2	0.68	-7%	4.5	-1.8	-1.0	-5
Cc1[nH]nc2c1C1(CCC3(CC1)OCCO3)C(C#N)=C(N)O2	0.8	0.7	6%	6.1	6.2	-3.3	8
O=C(CSc1ncc(-c2ccccc2)n1CC1CCCO1)N1CCCCC1 (stereo not given)	0.5	0.72	24%	2.3	0.3	-1.1	-7
O=C1c2ccccc2C(=O)C1c1ccccc1	·	·	·	4.8	11	-0.4	10
CN(Cc1nc(Cc2cccc(F)c2)no1)CC1COCCO1 (stereo not given)	-0.1	0.71	·	0.5	1.5	-2.6	4
Nc1ccc(C(=O)NCC2(c3ccccc3)CCCC2)cc1	-0.5	0.66	7%	3.3	3.1	0.0	0
O=C(c1ccc(F)cc1)C1CCN(C(=S)NCC2CCCO2)CC1 (stereo not given)	-2.6	0.72	3%	0.9	1.4	1.7	1

Next part:
compound	Bfl-1 A1 inh	Ecoli growth	Vif A3G	UCH37 DUB inh	LANA-H2B inh	HNF4A DNA FP	Beta2AR agonist
CC(C)(C)c1ccc(C(=O)N2CCCN(c3ccc([N+](=O)[O-])cn3)CC2)cc1	-0.2	0.68	·	12	0.1	1.5	0
Cc1cc(C)n(C(=O)c2ccccc2[N+](=O)[O-])n1	1.5	0.68	·	3.0	-0.6	-2.4	6
CS(=O)(=O)c1ccccc1C(=O)NCCC(c1ccccc1)c1ccccc1	-0.2	0.63	·	1.4	-9.8	1.1	4
CCOc1cc(C(N)=O)cc(Cl)c1OCC	0.1	0.67	0%	0.1	-9.1	-0.3	2
COc1cc(/C=N/NC(=O)CCN2CCN(Cc3ccccc3)CC2)cc(OC)c1OC	-1.2	·	·	·	-2.1	-1.8	-1
Cc1ccc(-c2ccc(S(=O)(=O)N3CCCC3)cc2)cc1	-0.1	0.73	-6%	1.9	-1.3	-2.4	10
COc1ccc(NS(=O)(=O)c2cc(NC(=O)c3cnccn3)ccc2N2CCCC2)cc1	0.4	·	·	·	1.9	-4.4	-8
NC(=O)c1sc(=S)n(-c2ccc(Br)cc2)c1N	-0.6	0.73	-3%	13	-0.8	3.7	1
COC(=O)c1ccc(CSc2nnc(-c3c[nH]c4ccccc34)n2C)o1	1.1	0.77	9%	1.0	-2.9	-1.8	3
Cc1ccc(NC(=O)CCOc2ccccc2)cc1	-1.0	0.65	2%	-1.7	1.8	1.6	-11
COc1ccccc1OCC(=O)OCC(=O)Nc1ncc(Cl)cc1Cl	-0.1	0.69	5%	2.6	7.8	-3.4	-1
CO/N=C(\CCC(=O)O)c1cccs1	0.4	·	-10%	·	-1.9	-0.6	-10
Cn1c(=O)c2ccccc2n(Cc2ccccc2Cl)c1=O	1.0	·	?	·	-1.2	-4.5	3
COc1ccc(CCNC(=O)c2ccc3nc[nH]c3c2)cc1	0.2	0.71	0%	3.7	-0.1	3.1	5
CC1CN(C(=O)COc2ccc3ccccc3c2Br)CC(C)O1 (stereo not given)	-0.2	0.67	-8%	1.0	0.0	0.1	-6
O=C(COC(=O)C1CCN(C(=O)c2ccc(Cl)cc2)CC1)Nc1ccccc1F	-1.4	0.65	-4%	2.2	-1.4	-0.7	3
CC1CC(C)(C)NC(=S)N1CCC(=O)N1CCN(Cc2ccccc2)CC1 (stereo not given)	0.2	0.67	·	-0.2	-4.4	-3.9	-12
COC(=O)c1c(-c2ccccc2)noc1-c1ccccc1	1.5	0.63	·	5.4	2.6	2.1	-4
Cc1ccc(NC(=O)COc2ccc(-n3cnnn3)cc2)cc1C	0.5	0.7	15%	4.5	1.8	-0.1	0
COCCn1c(-c2ccc(Cl)cc2)cnc1SCC(=O)NCc1cccs1	-0.7	0.73	-6%	3.8	1.0	0.7	3

(further entries)
compound	Bfl-1 A1 inh	Ecoli growth	Vif A3G	UCH37 DUB inh	LANA-H2B inh	HNF4A DNA FP	Beta2AR agonist
CCn1c(=S)[nH]c2nc3c(cc2c1=O)CCCC3	-0.5	0.69	7%	5.7	-3.3	-0.5	-10
Clc1cccc(Cl)c1Cn1nnc(-c2cccs2)n1	-0.7	0.7	70%	2.3	1.7	-2.0	5
O=C(CSc1nc2ccccc2c(=O)[nH]1)c1ccc(O)c(O)c1	0.1	0.64	15%	10	5.1	-13	0
COc1ccc(C2(C)CC(=O)NC2=O)cc1 (stereo not given)	-0.1	0.67	-16%	2.7	1.9	-1.5	-1
O=C(CNC(=S)N(Cc1ccccc1)Cc1ccccc1F)NCc1ccccc1	?	0.69	·	5.5	1.8	-0.9	14
CCOc1ccc(NC(=O)CSc2nc(NS(=O)(=O)c3ccc(C)cc3)cc(=O)[nH]2)cc1	·	0.69	·	5.6	·	2.3	-17
COc1cccc(NC(=O)c2ccc3c(c2)OCCO3)c1	·	0.68	·	5.8	·	0.4	-4
COC(=O)c1ccccc1NC(=O)Cn1c(=O)n(CCC(=O)NC2CCN(Cc3ccccc3)CC2)c(=O)c2ccccc21	1.0	0.68	-7%	0.5	3.1	1.1	8
CCCCN(CCCC)c1nc2ccccc2nc1C(C#N)C(=O)NCCCOC (stereo not given)	0.0	0.79	7%&-9%	-3.3	27*	-0.8	8
COc1ccc(NC(=O)CN(C)C(=O)c2cccc(S(=O)(=O)N3CCN(c4ccc(F)cc4)CC3)c2)cc1	·	0.66	·	1.7	·	-2.1	-12
CN1CCN(S(=O)(=O)c2ccc(NC(=O)c3ccccc3F)cc2)CC1	-0.5	0.67	·	2.1	-6.0	0.9	-3
CCn1c(SCC(=O)Nc2cc(C)on2)nnc1-c1ccccc1	-0.2	0.63	-2%	3.3	1.7	0.2	4
C[C@@H](C(=O)NNC(=O)c1ccc(Cl)cc1)N1C(=O)C2CC=CCC2C1=O (stereo not given in full)	0.1	0.67	3%	4.0	0.7	2.0	-1
CCC(C)(C)NC(=O)C(NS(=O)(=O)c1cccs1)c1ccccc1 (stereo not given)	0.9	0.67	6%	0.6	-1.0	5.1	-2
COc1cc(OC)cc(C(=O)NC(C)CCc2ccccc2)c1 (stereo not given)	0.6	0.68	·	3.5	-1.7	2.3	4
Cc1cccc(-c2nn(-c3ccccc3)cc2C(=O)N2CCN(C3CCS(=O)(=O)C3)CC2)c1 (stereo not given)	0.1	0.71	-1%	1.8	5.3	0.1	-1
C=CCn1c(SCC(=O)c2ccc(F)cc2)nnc1-c1ccc2c(c1)OCO2	0.0	0.69	-8%	-0.4	5.1	-2.3	-8
Cc1nn(C)c(C(=O)NNC(=S)NCC(C)C)c1Cl	0.2	0.68	2%	-0.5	1.9	-1.8	i
OC(COc1ccccc1)CN1CCN(c2ccccc2)CC1 (stereo not given)	·	0.65	4%	2.6	·	-0.5	2
Cc1sc2nc(C3CC3)nc(SCC(=O)NCc3ccco3)c2c1C	0.1	0.68	-27%	3.1	-4.6	0.1	-10

Reformatted with values under each structure: entries from further up.
Sequence of screens: Bfl-1 A1 inh | Ecoli growth | Vif A3G | UCH37 DUB inh | LANA-H2B inh | HNF4A DNA FP | Beta2AR agonist
COC(=O)c1ccccc1NC(=O)Cn1c(=O)n(CCC(=O)NC2CCN(Cc3ccccc3)CC2)c(=O)c2ccccc21
    1.0 | 0.68 | -7% | 0.5 | 3.1 | 1.1 | 8
C[C@@H](C(=O)NNC(=O)c1ccc(Cl)cc1)N1C(=O)C2CC=CCC2C1=O (stereo not given in full)
    0.1 | 0.67 | 3% | 4.0 | 0.7 | 2.0 | -1
Clc1cccc(Cl)c1Cn1nnc(-c2cccs2)n1
    -0.7 | 0.7 | 70% | 2.3 | 1.7 | -2.0 | 5

New compounds follow:
compound	Bfl-1 A1 inh	Ecoli growth	Vif A3G	UCH37 DUB inh	LANA-H2B inh	HNF4A DNA FP	Beta2AR agonist
NS(=O)(=O)c1ccc(NC(=O)C2CCCO2)cc1 (stereo not given)	1.2	0.72	-7%	-0.2	2.1	·	·
O=C(CNC(=O)C1CCCCC1)Nc1ccccc1	0.2	0.69	-2%	0.7	6.8	-1.8	1
OC(COc1ccc2ccccc2c1Cl)CN1CCOCC1 (stereo not given)	0.5	0.69	-1%	6.9	-0.9	-0.1	4
COc1ccc(C(=O)NC(=S)Nc2ccc3[nH]c(=O)[nH]c3c2)c(OC)c1	1.4	·	·	·	-4.8	-0.4	-14
COC(=O)c1cc(CNC(=O)CCCSc2ccccc2)ccc1OC	·	0.7	·	1.5	·	3.0	4
CCCOc1ccc2c(c1)C(=NN=C(N)N)c1cc(OCCC)ccc1-2	0.2	0.61	-7%	5.1	-2.9	2.8	8
Cc1ccc(C(=O)OCC(=O)NCc2ccco2)cc1S(=O)(=O)N1CCOCC1	-1.3	0.68	-3%	2.7	-3.4	6.0	2
CC(C(=O)Nc1ccccc1Sc1ccccc1)N(c1ccccc1)S(C)(=O)=O (stereo not given)	-1.4	0.7	3%	0.0	3.0	-3.3	4
CCN(CC)S(=O)(=O)c1cc(C(=O)OCC(=O)Nc2c(F)cccc2F)ccc1F	0.0	0.7	2%	2.3	6.2	3.2	0
CC1CC(C)CN(C(=O)CSc2nc3ccsc3c(=O)n2Cc2ccccn2)C1 (stereo not given)	0.7	0.73	5%	0.1	3.8	6.1	5
COc1ccc(Cc2nc(-c3ccccn3)no2)cc1	0.2	0.71	2%	2.8	-5.6	-1.7	-10
COc1ccc(N2CCN(C(=O)c3cc(C)on3)CC2)cc1	-0.2	0.66	2%	4.2	0.5	-0.3	2
CN(Cc1ccccc1)c1ccc(C(=O)O)cc1[N+](=O)[O-]	1.2	0.68	·	11	1.6	-3.3	12
c1ccc2c(NCCc3c[nH]c4ccccc34)c3ccccc3nc2c1	-0.4	·	·	·	-2.2	-18	11
